CtBP-E1A blk: CtBP/E1A binding inhibition. 0.49% of 340,000 active. AlphaScreen GST-E1A/His-CtBP binding, 1536-well; active compounds read low; control for the full effect not named in the record. AID 651724. activity change, % (test concentration not listed); in the data active means activity change below about -65%; inconclusive means about -30% to -65%; inactive means above about -30%; note: % is set by controls: 0 for no effect and ±100 for the full control effect
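Steps: dispense buffer (Tris pH 8.0, NaCl 300 mM, TCEP 1 mM, BSA, Tween 20); add 5X protein mix (GST-E1A, His-CtBP, 125 nM each); pin 23 nL compound; 2 h at 37 °C, dark; add 5X beads (50 ug/mL); 1 h; read.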
Six1-Eya2 blk: Six1/Eya2 interaction inhibition; 0.56% of 360,000 active; activity change, % (concentration not given with the values); Q15475+O00167; AlphaScreen GST-Six1/His-Eya2 binding, biochemical; active compounds read low; control for the full effect not named in the record; AID 651725; in the data active = activity change below about -65%; inconclusive = about -30% to -65%; inactive = above about -30%; note: % is set by controls: 0 for no effect and ±100 for the full control effect
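Six1/Eya2 binding was read as AlphaScreen signal after compounds were pinned into GST-Six1 plus His-tagged Eya2 (5X stock 250/500 nM) in pH 8.0 Tris/NaCl/TCEP buffer, beads added, then incubated 1 h, 37 C, dark.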
TRPML1 agonist: human mucolipin-1 channel agonism. TRPML1-expressing cells, Ca2+ dye fluorescence, FDSS; host cell line not named in the record; reference of the full effect not given here. activation, % (test concentration not listed). 0.12% of 410,000 active. AID 624414; in the data active = activation above about 50%; inconclusive = about 30% to 50%; inactive = below about 30%; note: 0% is about no effect; the text of the record puts the active cut at 80%
Target sequence (Q9GZU1 whole entry, looked up): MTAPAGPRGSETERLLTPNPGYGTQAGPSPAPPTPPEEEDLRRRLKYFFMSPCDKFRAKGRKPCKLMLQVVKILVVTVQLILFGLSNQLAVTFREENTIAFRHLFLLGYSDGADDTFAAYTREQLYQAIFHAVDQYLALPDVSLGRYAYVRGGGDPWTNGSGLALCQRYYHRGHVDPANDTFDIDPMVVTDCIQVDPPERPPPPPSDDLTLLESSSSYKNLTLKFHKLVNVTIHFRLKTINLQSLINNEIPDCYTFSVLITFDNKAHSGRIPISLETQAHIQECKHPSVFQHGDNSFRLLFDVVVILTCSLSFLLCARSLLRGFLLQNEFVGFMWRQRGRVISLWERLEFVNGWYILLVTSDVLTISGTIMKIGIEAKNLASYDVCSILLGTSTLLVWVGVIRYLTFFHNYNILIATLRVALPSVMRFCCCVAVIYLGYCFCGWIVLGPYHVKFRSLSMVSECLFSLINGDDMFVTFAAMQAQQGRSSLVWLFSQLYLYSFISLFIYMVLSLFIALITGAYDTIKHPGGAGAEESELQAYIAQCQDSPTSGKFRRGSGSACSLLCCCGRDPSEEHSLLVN
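In this qHTS format, compounds were pin-transferred onto Ca8-dye-loaded TRPML1-DL cells induced with Tet overnight, and intracellular Ca2+ fluorescence was recorded kinetically for 110 s after a 10 s baseline. A subsequent 4uM final 54-4 (EC80) addition followed by a second 110 s read served as the antagonist phase.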
PINK1 modulator: modulators of PINK1 expression; PINK1 immunofluorescence, high-content cytometry, 24 h; Potency, µM (doses to about 76.6 µM), for inactives: at the top dose activation (PINK1 increase), hits mostly activators; 0.2% of 410,000 active; active = well fitted activation curve with a large enough effect; inconclusive = small, poorly fitted or top-dose-only effect; inactive = flat fitted curve, though single readings scatter; cell line not stated here;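 note: potency is the fitted concentration of half-maximal effect; % of control where 0% means no effect; nearly all actives have a fitted effect of over 65% in size; a mitochondrial uncoupler was the plate control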
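Stable cell line, 250 cells/well, 12 h attachment; compounds pinned at 5 concentrations, 24 h; CCCP control. Fixed with nuclear dye, primary antibodies 12 h at 10 degrees C, secondary plus cell stain; laser-scanning cytometer read.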
D2 PAM: positive allosteric modulators of human D2 dopamine receptor | DiscoveRx D2 beta-arrestin cells, luminescence, 90 min; 100% = 57 uM dopamine signal | P14416 | AID 624464 | 0.23% of 360,000 active | potentiation, % (no concentration beside the values); active = potentiation of 50% or more; inconclusive = 30% to 50%; inactive = 30% or less;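 note: compound concentration not given in the record; tested on top of an EC20 dose of dopamine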
Target sequence (P14416 whole entry, looked up): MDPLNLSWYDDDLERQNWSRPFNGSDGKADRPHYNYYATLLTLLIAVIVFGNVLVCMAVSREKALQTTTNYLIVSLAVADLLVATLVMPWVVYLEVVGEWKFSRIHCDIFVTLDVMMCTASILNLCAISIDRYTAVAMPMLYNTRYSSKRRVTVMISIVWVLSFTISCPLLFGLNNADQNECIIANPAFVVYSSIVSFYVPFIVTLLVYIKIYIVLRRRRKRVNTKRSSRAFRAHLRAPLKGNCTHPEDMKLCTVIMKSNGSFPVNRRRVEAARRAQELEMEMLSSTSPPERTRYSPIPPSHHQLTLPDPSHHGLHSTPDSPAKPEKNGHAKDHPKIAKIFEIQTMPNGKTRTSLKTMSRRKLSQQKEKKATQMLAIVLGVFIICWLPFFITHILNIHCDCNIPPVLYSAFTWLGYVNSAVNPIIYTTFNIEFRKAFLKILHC
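D2 cells co-treated with compound plus 50 nM dopamine (EC20) for 90 min at 37 deg C to detect potentiation. Beta-arrestin recruitment was read as enzyme-fragment luminescence after 1 h at ambient temperature. Full response was set by 57 uM dopamine.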
D2 ag: human D2 receptor agonism in beta-arrestin assay | P14416 | DiscoveRx PathHunter D2 beta-arrestin, luminescence, 90 min; 100% = 57 uM dopamine signal | activation, % (concentration not given with the values) | 0.084% of 360,000 active; in the data active = activation above about 40%; inconclusive = about 15% to 40%; inactive = below about 15%; note: compound concentration not given in the record; the text of the record calls up to 30% inactive
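DiscoveRx PathHunter D2 beta-arrestin cells (2,100/well) attached overnight, then compound-stimulated 90 min at 37 C in HBSS/10 mM HEPES/0.1% Tween-20 buffer; beta-galactosidase complementation read by luminescence after 1 h at ambient temperature. Dopamine 57 uM final (EC100) as control.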
* = called active by the depositor; ? = inconclusive; nt = no result given; [ ] = dose if it differs, or a comment.

Compound | CtBP-E1A blk | Six1-Eya2 blk | TRPML1 agonist | PINK1 modulator | D2 PAM | D2 ag
CCC(C)NC(=O)C1CCN(S(=O)(=O)c2ccc3[nH]c(=O)ccc3c2)CC1 (configuration not stated) | -1 | 5 | 1.0 | -0.1% | -3 | 3.5
COC(=O)c1sc(-c2cccs2)cc1NC(=O)/C=C/C(=O)O | 2 | 4 | -0.1 | -1.1% | 0 | 1.9
O=C(CN1CCOCC1)Nc1ccccc1NC(=O)C1CCN(c2ncccn2)CC1 | 8 | 3 | 0.5 | 6.0%[38.3 µM] | 1 | -0.3
Cc1ccc(-n2c(O)c(C=Nc3ccccc3-c3n[nH]c(=S)[nH]c3=O)c3ccccc3c2=O)c(C)c1 | -8 | -13 | 1.2 | -1.8% | -2 | 0.1
OCCN1CCN(Cc2nc(-c3cccc(Cl)c3)no2)CC1 | -15 | 5 | 0.2 | -2.0% | -9 | -4.1
O=C(Nc1ccncc1)c1ccccc1F | 4 | 8 | -0.6 | -1.1% | -5 | -3.8
O=C(Cc1ccccc1)Nc1ccnn1C1CCN(Cc2nccs2)CC1 | 1 | 1 | -1.4 | -0.2% | -5 | 2.0
COc1ccc(C2=NN(C(=O)c3ccccc3)C(c3ccc(OC)c(OC)c3)C2)cc1OC (configuration not stated) | -12 | -25 | 3.1 | -2.3% | -6 | 6.6
CC(C)C[C@H]1CNC(=S)N1C[C@H]1CCCN1C[C@H](Cc1ccccc1)N1C[C@H](CC(C)C)N(CCc2ccccc2)C1=S | -3 | -10 | 0.2 | 3.3% | -6 | -4.3
O=C(CCCOc1ccccc1)Nc1ccc2c(c1)OCCO2 | -3 | 1 | 0.1 | 5.2% | -6 | -2.3
O=C(Nc1cc(S(=O)(=O)N2CCCCC2)ccc1N1CCOCC1)c1ccc(F)cc1 | 21 | 0 | -0.5 | 1.6% | -23 | -3.6
Cc1ccc2nc(SCC(=O)NCc3ccc(F)cc3)[nH]c2c1 | 0 | 19 | 1.5 | 1.2% | -9 | -5.8
COc1ccc(CCCc2nnc(SCC(=O)Nc3nc(C)cs3)n2C)cc1 | 3 | 1 | 3.1 | -1.1%[38.3 µM] | 1 | -1.6
CCCCNC(=O)C1(C)CCN1C(=O)c1ccc(F)cc1Cl (configuration not stated) | 0 | 11 | 0.7 | 0.0% | -5 | 2.9
COc1ccc(C(=O)C2CCCN(C3Cc4ccccc4C3)C2)cc1OC (configuration not stated) | -10 | -5 | -0.6 | 5.4% | -18 | -4.6
COc1cccc(NS(=O)(=O)c2ccc3c(c2)N(C(C)=O)CCO3)c1 | -13 | 3 | -0.1 | -0.5% | -14 | 2.1
O=C(Cn1c(CO)nc2ccccc21)NCCc1ccc(F)cc1 | -5 | 5 | -0.2 | 1.4% | -2 | -4.7
O=C(OCC1COc2ccccc2O1)c1ccccc1F (configuration not stated) | 52 | 47 | 3.9 | 0.7%[38.3 µM] | 6 | 2.5
CCc1ccc(CN2CCC(Oc3ccc(C(=O)N4CCCCC4)cc3)CC2)cc1 | -8 | 4 | 0.4 | 5.1% | -27 | -2.9
Cc1nc(NC(=O)c2oc3ccccc3c2C)sc1C(=O)N(C)C | 4 | -2 | -0.1 | -2.4%[38.3 µM] | -4 | -2.8
O=C(Nc1ccccc1)c1ccc(Br)c(S(=O)(=O)Nc2ccccn2)c1 | 5 | -3 | -0.6 | 13% | -7 | -1.1
O=C(Nc1ccc(-c2ccco2)cc1)C1CCCN(Cc2ccco2)C1 (configuration not stated) | -3 | -13 | -0.5 | 0.3% | -25 | 1.2
COCCn1c(SC(C)C(=O)Nc2ncc(Cl)cc2Cl)nc2ccccc21 (configuration not stated) | -2 | 2 | 0.6 | 2.1% | 6 | -0.8
COc1cccc(Nc2nc(-c3sc(NC(=O)c4ccco4)nc3C)cs2)c1 | -23 | ? | 1.6 | -1.3% | -7 | -1.2
Cc1ccc(OCCC(=O)Nc2ccc3c(c2)OCCCO3)cc1 | 2 | -1 | 1.2 | 0.3% | -14 | -4.0
Cc1cc(=O)oc2cc(OCC(=O)N3CCN(C(=O)c4ccco4)CC3)ccc12 | 4 | 1 | 3.4 | -0.3% | -6 | 5.1
C=C(Cl)COc1ccc2c(CCCC)cc(=O)oc2c1 | 28 | 49 | 4.1 | 0.5% | -7 | -3.3
CCc1nnc(NC(=O)c2cccc(NC(=O)C(C)C)c2)s1 | 10 | 3 | -0.6 | 4.2% | 0 | -2.9
COc1ccc(C2(c3ccc(OC)cc3)NC(=O)N(CC(=O)Nc3ccc(N4CCOCC4)cc3)C2=O)cc1 | -2 | -27 | 1.0 | 5.3% | -12 | -3.5
O=[N+]([O-])c1cc(CN2CCCC2)ccc1Sc1ccc(Cl)cc1 | -10 | ? | -0.7 | ? | -27 | -1.6

Compounds from the list above with fluorine, in the order listed:
Compound | CtBP-E1A blk | Six1-Eya2 blk | TRPML1 agonist | PINK1 modulator | D2 PAM | D2 ag
O=C(Nc1ccncc1)c1ccccc1F | 4 | 8 | -0.6 | -1.1% | -5 | -3.8
O=C(Nc1cc(S(=O)(=O)N2CCCCC2)ccc1N1CCOCC1)c1ccc(F)cc1 | 21 | 0 | -0.5 | 1.6% | -23 | -3.6
Cc1ccc2nc(SCC(=O)NCc3ccc(F)cc3)[nH]c2c1 | 0 | 19 | 1.5 | 1.2% | -9 | -5.8
CCCCNC(=O)C1(C)CCN1C(=O)c1ccc(F)cc1Cl (configuration not stated) | 0 | 11 | 0.7 | 0.0% | -5 | 2.9
O=C(Cn1c(CO)nc2ccccc21)NCCc1ccc(F)cc1 | -5 | 5 | -0.2 | 1.4% | -2 | -4.7
O=C(OCC1COc2ccccc2O1)c1ccccc1F (configuration not stated) | 52 | 47 | 3.9 | 0.7%[38.3 µM] | 6 | 2.5

Additional results follow.
Compound | CtBP-E1A blk | Six1-Eya2 blk | TRPML1 agonist | PINK1 modulator | D2 PAM | D2 ag
Cc1nc(N(C)Cc2ccccc2)c2nnn(Cc3ccccc3)c2n1 | 13 | 33 | 7.3 | 3.7% | 12 | -6.0
C=CCn1c(SCCOC)nc2c1c(=O)[nH]c(=O)n2C | 2 | 3 | -0.9 | -0.8% | 0 | -2.3
Cc1ccccc1Nc1c(-c2ccccn2)nc2ccccn12 | nt | -91* | 1.5 | 8.6% | -35 | -9.1
NC(=O)c1cc2c(s1)-c1cc(Cl)ccc1SC2 | 4 | 4 | 6.3 | -0.3% | -17 | -1.8
CCc1cc(-c2ccc3c(c2)COc2c4ccccc4nn2-3)on1 | -7 | -2 | -0.1 | 7.0% | -12 | -0.8
CCOc1ccc(-c2nnc3ccc(SCC(=O)NCc4ccco4)nn23)cc1 | -1 | -1 | 0.0 | 5.8%[38.3 µM] | -6 | -1.9
Cc1nnc(SCC(=O)c2ccc(Br)cc2)s1 | nt | -1 | 0.6 | 0.4% | 0 | 2.6
CCCn1c(SCc2nc(-c3cccs3)no2)nnc1-c1ccncc1 | 4 | -2 | -0.1 | -0.3%[38.3 µM] | -1 | 1.2
Cc1ccc(Nc2nc(CSc3nnnn3C)cs2)cc1 | -15 | -16 | -0.3 | -2.9% | -4 | 1.5
COc1ccccc1/C=C(\C#N)C(=O)Nc1ccc(S(N)(=O)=O)cc1 | -24 | -8 | 1.3 | -0.8% | 12 | 5.2
Cc1[nH]nc2c1C1(C(=O)N(Cc3ccc(Cl)cc3)c3ccccc31)C(C#N)=C(N)O2 (configuration not stated) | -2 | -1 | 0.3 | -0.1%[38.3 µM] | 9 | 0.5
Cc1ccc(N2C(=O)N(CC(=O)N(C)Cc3ccccc3)C(=O)C2C)cc1 (configuration not stated) | 9 | 0 | -0.1 | 2.5%[38.3 µM] | -6 | -5.5
O=C(c1c(F)c(F)c(F)c(F)c1F)N1CCN(c2cccc(C(F)(F)F)c2)CC1 | 6 | 4 | 4.0 | 1.3% | -5 | -2.8
COc1ccccc1N1CCN(C2CCN(C(=O)c3cccc(F)c3)CC2)CC1 | 1 | 9 | -1.0 | -1.4% | -26 | -1.1
COC(=O)c1ccc(CSc2ccc(S(=O)(=O)N3CCCCC3)cn2)cc1 | 9 | 4 | 2.1 | 15% | -6 | 0.0
CCOC(=O)c1c(NC(=O)COC(=O)CCOc2ccc(OCC)cc2)sc(C(=O)N(C)C)c1C | -6 | -29 | 2.3 | 1.8% | 0 | -2.1
CCc1cc2c(SCC(=O)c3ccccc3)ncnc2s1 | 22 | 25 | -0.1 | -1.5% | 18 | -2.5
O=c1[nH]c2ccc(NS(=O)(=O)c3ccc4ccccc4c3)cc2[nH]1 | 0 | -3 | -0.4 | 9.8% | -2 | -0.9
CC(=O)NC(N1CCCCC1)C(F)(F)C(F)(F)C(F)(F)C(F)F (configuration not stated) | 8 | 6 | 1.4 | 6.5%[38.3 µM] | 3 | 0.3
COC(=O)[C@]1(C)N[C@H](CN(C)C(=O)c2ccc(C(C)(C)C)cc2)[C@@H]2C(=O)N(Cc3ccccc3)C(=O)[C@@H]21 | 9 | -1 | 2.1 | -1.0% | 4 | 1.8
Cc1ccc(C(=O)/C=C/Nc2ccc([N+](=O)[O-])cc2Br)cc1 | 3 | -3 | 1.1 | 6.2% | 27 | -1.0
CNC(=O)c1ccsc1NC(=O)C1CCN(S(=O)(=O)c2ccc(Cl)s2)CC1 | 0 | -8 | -0.1 | 7.0% | 2 | 2.3
CC(/C=C/c1ccco1)=N\NC(=O)C(O)c1ccccc1 (configuration not stated) | nt | -4 | -1.0 | 2.9% | -5 | -5.8
CCOC(=O)c1ccc(-c2ccc(/C=C(\C#N)C(=O)NCc3cccs3)o2)cc1 | 17 | 3 | 1.1 | 17% | -12 | 1.3
Cc1cc([N+](=O)[O-])ccc1NCc1ccccc1 | -4 | -11 | 1.2 | -7.4%[38.3 µM] | -12 | 0.6
O=C(CSc1nc2ccccc2s1)N/N=C/c1ccccc1C(=O)O | -11 | -13 | 0.1 | -0.5% | -14 | -2.3
CCCn1c(N)c(N(CCOC)C(=O)CSc2cc(C)c3ccccc3n2)c(=O)[nH]c1=O | 5 | -7 | -0.5 | -1.6% | -12 | -5.8
O=S(Cc1ccc(Br)cc1)Cc1nnc(SCc2ccc(Br)cc2)n1-c1ccccc1 (configuration not stated) | 4 | -10 | 1.5 | -0.9% | -5 | 2.6
C=CCn1c(SCC(=O)N2CCN(c3ccccc3)CC2)nc2c([nH]c3ccccc32)c1=O | -1 | 2 | -0.2 | 6.6% | 7 | 0.7
Cc1ccc([N+](=O)[O-])cc1NC(=O)CSc1nnc(C)n1CC1CCCO1 (configuration not stated) | -12 | -3 | 0.1 | 0.0% | -12 | -1.2

Bioassay records (PubChem BioAssay)

Random draw from the library; about 1.3% have a hit in one of these screens.
